# From PubChem BioAssay
# fixLJ activator = activators of Burkholderia fixLJ two-component system. B. multivorans fixK-promoter GFP reporter, 18 h; hits give high values. z-score (concentration not given with the values). 29,000 compounds, 0.3% hits;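 active = replicate mean overnight rise in green fluorescent reporter signal, 3 or more SD over negative controls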;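 note: score is relative to vehicle wells of the plate; 300 nL library stock went into each well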
# Active calls of the source: *; & = joins results of further samples.
SMILES,fixLJ activator
CN1C(=O)[C@@H]2COC[C@@H]1CN(S(=O)(=O)c1ccc3ccccc3c1)C2,0.27
CCOC(=O)N1CCc2c(sc3c2c(=O)n(-c2ccc(CC)cc2)c(=O)n3Cc2cc(C)ccc2C)C1,-0.05
Cc1ccc(Cl)cc1NC(=O)Cn1c(=O)n(CCCS(=O)(=O)C2CCCCC2)c(=O)c2ccccc21,-0.19
COc1cccc(-n2cc(CN(C)c3ncnc4[nH]ccc34)cn2)c1,-0.4
CCNC(=O)C1CCN(C(=O)C=Cc2cnc(N(C)C)nc2)C1 (stereo unspecified),0.44
CCOC(=O)c1nc(Nc2ccccc2OC)c2ccccc2n1,-2.3
Cc1cc2oc(C(=O)Nc3ccc(S(N)(=O)=O)cc3)cc(=O)c2cc1C,-0.92
COCCCC1CCCCN1S(=O)(=O)c1cc(C(=O)O)c(Cl)cc1F (stereo unspecified),-2.1
Cc1ccc(NC(=O)Cc2cccnc2)cc1NC(=O)CN(C)C,0.68
O=C(NC1CCCC1)c1ccc(CSc2nc3ccncc3n2Cc2ccc(F)cc2)cc1,-8.9
CC1CCCCN1C(=O)c1ccc2c(c1)N(Cc1ccc(Cl)cc1)C(=O)c1ccccc1S2=O (stereo unspecified),1.5
Cc1ccc(Cn2c(=O)n(CCc3ccc(Cl)cc3)c(=O)c3ccccc32)cc1,0.43
COc1cc(NS(=O)(=O)c2ccc(N)cc2)nc(OC)n1,0.79&0.01
CCCOc1ccccc1C(=O)N1CC[C@@]2(C(=O)O)CCCN(C)[C@H]2C1,-2.8
O=C(CSc1oc(-c2ccccc2)nc1S(=O)(=O)c1ccc(Cl)cc1)Nc1ccc(F)cc1,-0.62
COc1ccccc1N1CCN(Cc2nc(-c3cc(OC)c(OC)c(OC)c3)no2)CC1,0.99
COc1ccc(-n2c3c(cc(-c4nc(-c5ccc(Cl)cc5)cs4)c2=O)C(=O)CC(C)(C)C3)cc1,1.9
CCNC(=O)c1ccc(NC(=O)c2cccc(CN(C)C)c2)cc1Cl,-0.45
Cc1cccc(OC(C)(C)C(=O)N2CCC3OCc4cnnn4C3C2)c1 (stereo unspecified),-0.25
CC(C)Oc1cc(N2CCCC(C(=O)c3ccccn3)C2)nc(N)n1 (stereo unspecified),-0.06
Cc1ccc(C)c(NC(=O)C2CCN(c3nn4c(=O)cc(C)nc4s3)CC2)c1,-0.53
c1cc(-c2ccc(CN3CCCCC3c3nccs3)o2)[nH]n1 (stereo unspecified),0.1
Cc1oc(-c2ccccc2F)nc1CSCC(=O)NCc1ccccc1,-1.4
O=C(Cc1ccc(O)cc1)N1CCC2(CCC(=O)N(C3CCCC3)C2)CC1,0.27
Cc1ccc(-c2nc(CS(=O)(=O)CC(=O)N3CCN(c4cccc(C)c4C)CC3)c(C)o2)cc1,-1.2
COc1ccc(S(=O)(=O)N2CCC(c3nnnn3-c3ccccc3)CC2)cc1OC,-0.51
COc1ccc(Cl)cc1NC(=O)CCn1c(=O)oc2ccccc21,-1.1
O=C(NC1(C(F)(F)F)NC(=O)N(CCc2ccccc2)C1=O)c1ccccc1F (stereo unspecified),-1.4
O=c1c2cnn(-c3ccc(Cl)cc3)c2ncn1Cc1cccc(C(F)(F)F)c1,-1.6
COc1ccc(N(CC(=O)Nc2ccc(Cl)cc2C)S(=O)(=O)c2ccccc2)c(OC)c1,2.8
Cc1cccc(NC(=O)CCNS(=O)(=O)c2cccc3nonc23)c1,-0.03
O=C(NCCc1ccccc1)c1ccc2nc(N3CCCCC3)sc2c1,-0.45
CCCC(=O)Nc1cc2nn(-c3ccccc3)nc2cc1C,-0.72
COC(=O)c1cc2sc(C)cc2n1CC(=O)Nc1ccc(C)c(C)c1,-2.6
Cc1ccc(C(=O)Nc2ccc(NC(=O)c3cccs3)cc2)cc1C,0.59
Cc1ccc(C)c(N2CCN(C(=O)CN3C(=O)COc4ccc(S(=O)(=O)N5CCCCCC5)cc43)CC2)c1,-0.13
COc1ccc(CNC(=O)CCc2c(C)nc3nc(CNC(=O)OC(C)(C)C)nn3c2C)cc1,-2.9
CCCCN(CC)C(=O)Cn1c(=O)n(-c2ccc(OCC)cc2)c(=O)c2c3c(sc21)CCCC3,-1.3
CC(C)c1ccc(NS(=O)(=O)c2cc(Br)cc3c2N(C(=O)C2CC2)CC3)cc1,-0.01
COc1ccc(C(=O)N(Cc2sccc2C)C2CCS(=O)(=O)C2)cc1Cl (stereo unspecified),1.3
Cc1ccc2c(c1)C(=O)OC(C(=O)Nc1ncc(Cc3ccc(Cl)cc3)s1)C2 (stereo unspecified),-1.2
CCOc1ccc(NC(=O)c2ccc(-c3ccccc3)s2)cc1,-0.21
Cc1cccc(N2CCN(C(=O)c3cc4c(=O)oc5ccccc5c4s3)CC2C)c1 (stereo unspecified),-0.59
Cc1ccc(NC(=O)CCc2c(C)nc3cc(-c4ccccc4)nn3c2C)cc1F,-3
COc1ccc(OC(C)C(=O)NCc2nc(-c3cccc(C)c3)no2)cc1 (stereo unspecified),-4.1
CC(C)N(C(=O)c1cc2c(Cl)nc3ccccc3c2s1)C1CCCCC1,-0.23
CCN(CC)CCNC(=O)c1ccc2c(c1)N(Cc1ccccc1)C(=O)c1ccccc1S2=O (stereo unspecified),0.07
CCN(CC)CCSc1nc2ccccc2c(=O)n1-c1ccc(Cl)cc1,0.67
COc1ccccc1C1CN(C(=O)c2sc(C)nc2C)CC1C(=O)O (stereo unspecified),-1.7
COc1ccc(CN2C(=O)c3oc4ccc(F)cc4c(=O)c3C2c2ccc(O)cc2)cc1 (stereo unspecified),0.06
# Next part:
SMILES,fixLJ activator
Cc1ccc(NC(=O)C2CCCN(S(=O)(=O)c3c(C)noc3C)C2)cc1 (stereo unspecified),1.8
CCOc1ccc(CCNC(=O)Cn2c(C)c3cnn(-c4ccccc4)c(=O)c3c2C)cc1,-1.3
COc1cccc(-c2[nH]ncc2C(=O)NCCCSC)c1,0.22
CCc1noc(CNC(=O)N2CCN(CCSC)CC2)n1,-2
CCCCCOc1ccc(/C=C/C(=O)Nc2sc3c(c2C(=O)OCC)CCC3)cc1OC,1.4
Cc1ccccc1-c1nc(CS(=O)(=O)CC(=O)NC(C)c2ccccc2)c(C)o1 (stereo unspecified),0.29
Cc1cc(Cl)ccc1NC(=O)Cn1nnc2sc(-c3ccccc3)cc2c1=O,2
Cc1ccc(N(CC(=O)N2CCN(c3cc(Cl)ccc3C)CC2)S(=O)(=O)c2c(C)noc2C)cc1,0.84
COC(=O)CSc1nc2sc3c(c2c(=O)n1-c1ccc(C)cc1)CC(C(C)C)OC3 (stereo unspecified),-0.99
O=C(Nc1cc2c(cc1C(=O)c1cccc(Br)c1)OCCO2)c1ccccc1F,-0.06
Cc1ccc(NC(=O)[C@H](Cc2ccccc2)N2Cc3ccccc3C2=O)cc1,-1
COc1ccc(-c2noc(CCC(=O)Nc3cccc(C)c3C)n2)cc1OC,-1.5
Cc1ccc(NC(=O)CCSc2nc(-c3ccco3)cc(C(F)(F)F)n2)cc1F,1.6
O=C(Nc1ccc(OC(F)(F)F)cc1)C(Cc1ccccc1)NS(=O)(=O)c1cccc2nsnc12 (stereo unspecified),-2.8
COc1ccc(OC)c(C2NC(=O)NC(C)=C2C(=O)Nc2cc(C)cc(C)c2)c1 (stereo unspecified),-3.7
Cc1ccc(CNC(=O)CSCc2nc(-c3cccc(C)c3)oc2C)cc1,-1.4
CCOC(=O)c1c(NC(=O)c2cc(CC)on2)sc(C)c1C,1.1
Cc1cccc(N2CCN(c3nc4ccccc4c4nc(-c5cccnc5)nn34)CC2)c1C,-0.93
O=C(NC1CCN(C(=O)N2CCCC2)CC1)c1cc(Cl)ccc1F,0.39
CCOc1ccc(C(=O)NC2CCOC3(CCOCC3)C2)o1 (stereo unspecified),-0.73
O=C(/C=C/c1cn(CC(O)CN2CCCCCC2)c2ccccc12)c1ccccc1 (stereo unspecified),-2.3
Cc1cc(C)n2nc(SCC(=O)Nc3ccc(O)cc3)nc2n1,-0.39
Cc1ccc(/C=C(\C#N)c2nc3ccccc3c(=O)[nH]2)cc1,-0.94
COc1ccc(N(Cc2cc3cc(OC)ccc3[nH]c2=O)C(=O)c2cccc(Cl)c2)cc1,-0.18
CN(C)c1ccc(-n2c(CCC(=O)O)ccc2-c2ccccc2)cc1,-2.5
CCn1c(CNC(=O)c2ccc(OC)cc2)nnc1SCC(=O)Nc1ccc(OC)cc1,0.33
CCOC(=O)CCc1c(C)nc2cc(-c3cc(OC)cc(OC)c3)[nH]n2c1=O,-1.8
CCCc1nc(CN(CC)C(=O)c2nnc3nc(C)ccn23)no1,-2.5
COc1ccc(NC(=O)c2cnc3cc(C)ccn3c2=O)c(OC)c1,0.48
COCCCNC(=O)c1ccc(Cn2c(=O)c3ccccc3n(Cc3ccc(Cl)cc3)c2=O)cc1,0.01

# A run of entries taken from the entries so far, as a working copy:
SMILES,fixLJ activator
Cc1ccccc1-c1nc(CS(=O)(=O)CC(=O)NC(C)c2ccccc2)c(C)o1 (stereo unspecified),0.29
Cc1cc(Cl)ccc1NC(=O)Cn1nnc2sc(-c3ccccc3)cc2c1=O,2
Cc1ccc(N(CC(=O)N2CCN(c3cc(Cl)ccc3C)CC2)S(=O)(=O)c2c(C)noc2C)cc1,0.84
COC(=O)CSc1nc2sc3c(c2c(=O)n1-c1ccc(C)cc1)CC(C(C)C)OC3 (stereo unspecified),-0.99
O=C(Nc1cc2c(cc1C(=O)c1cccc(Br)c1)OCCO2)c1ccccc1F,-0.06
Cc1ccc(NC(=O)[C@H](Cc2ccccc2)N2Cc3ccccc3C2=O)cc1,-1
COc1ccc(-c2noc(CCC(=O)Nc3cccc(C)c3C)n2)cc1OC,-1.5
Cc1ccc(NC(=O)CCSc2nc(-c3ccco3)cc(C(F)(F)F)n2)cc1F,1.6
O=C(Nc1ccc(OC(F)(F)F)cc1)C(Cc1ccccc1)NS(=O)(=O)c1cccc2nsnc12 (stereo unspecified),-2.8
COc1ccc(OC)c(C2NC(=O)NC(C)=C2C(=O)Nc2cc(C)cc(C)c2)c1 (stereo unspecified),-3.7
Cc1ccc(CNC(=O)CSCc2nc(-c3cccc(C)c3)oc2C)cc1,-1.4
CCOC(=O)c1c(NC(=O)c2cc(CC)on2)sc(C)c1C,1.1
Cc1cccc(N2CCN(c3nc4ccccc4c4nc(-c5cccnc5)nn34)CC2)c1C,-0.93
O=C(NC1CCN(C(=O)N2CCCC2)CC1)c1cc(Cl)ccc1F,0.39

# New compounds follow
SMILES,fixLJ activator
CCCN(Cc1ccccc1F)C(=O)c1cc(Cl)ccc1OCCN,-0.27
CCCCCCSc1nc(N)c2c3c(sc2n1)CCCC3C (stereo unspecified),-0.63
CC(=O)c1ccc(NC(=O)CCSc2nc(-c3ccco3)cc(C(F)(F)F)n2)cc1,-0.7
CCC(C)NC(=O)Cn1c(=O)n(CCCCCC(=O)NCc2ccccc2Cl)c(=O)c2sccc21 (stereo unspecified),-0.84
CCCC(=O)N1CCC(NC2COCC2Cc2ccnc3ccccc23)CC1 (stereo unspecified),-1.3
CN(CC1=CCC2CC1C2(C)C)Cc1nc(-c2ccncc2)no1 (stereo unspecified),0.64
CC1=C(C(=O)N2CCN(c3cc(C)ccc3C)CC2)C2(CCC(C)CC2)OC1=O (stereo unspecified),-1.7
COc1cc(CN(C(=O)c2cc3ccccc3oc2=O)C2CCS(=O)(=O)C2)cc(OC)c1OC (stereo unspecified),-0.82
COc1cccc(C(=O)NC(c2ccccn2)C2CC(O)C2)c1OC (stereo unspecified),0.81
Cc1c2cnn(CC(=O)NCc3ccc(Cl)cc3)c(=O)c2c(C)n1Cc1ccc(F)cc1,-1.1
CC(C)NC(=O)N1CCOc2c(O)cc(-c3nc4ccccc4s3)cc2C1,0.14
COc1ccc(CCNC(=O)c2cn(C)c3ccc(S(=O)(=O)N(C)C4CCCCC4)cc3c2=O)cc1OC,-0.5
Cc1c(CN(C)Cc2cc(C(C)(C)C)n[nH]2)c(=O)n(-c2ccccc2)n1C,-1.5
COC(=O)c1cc(NC(=O)[C@H](CCS(C)(=O)=O)N2Cc3ccccc3C2=O)cc(C(=O)OC)c1,-1.4
CC(C)C1=NOC(C(=O)NCCc2nc3ccccc3n2C)C1 (stereo unspecified),-0.48
Cc1ccc(OCC(=O)Nc2ccc(S(=O)(=O)Nc3ncccn3)cc2)c(C(C)(C)C)c1,-2.1
CC1=C(C(=O)O)N2C(=O)[C@@H](NC(=O)[C@H](N)C3=CCC=CC3)C2SC1 (stereo partly specified),-0.07
CCC(=O)N1CCc2cc(Br)cc(S(=O)(=O)N3CCCC(C(=O)Nc4cccc(C)c4C)C3)c21 (stereo unspecified),-1.9
Cc1ccccc1Nc1cc(C(=O)NCCc2ccc(Cl)cc2)c2ccccc2n1,1.1
CN(Cc1cc(-c2ccccn2)no1)C(=O)C(C)(C)NC(=O)c1cccs1,0.23
COc1ccc(NC(=O)C2=C(C)Nc3nc(SCc4ccccc4C)nn3C2c2cc(OC)c(O)c(OC)c2)cc1 (stereo unspecified),-2
Cc1nnsc1CN(C)C(=O)NC12CC3CC(CC(C3)C1)C2,-1
CCOC(=O)c1cccc(NC(=O)C2CCCN(S(=O)(=O)c3ccc4c(c3)oc(=O)n4C)C2)c1 (stereo unspecified),-2.2
COc1ccc(-c2ccc3c(N)c(C(=O)Nc4cccc(C)c4)sc3n2)cc1,-2
Nc1nc2c(ncn2COC(CO)CO)c(=O)[nH]1,-1.4
CC(=O)NS(=O)(=O)c1ccc(N)cc1,-1.6
COc1ccc(C(NC(=O)c2ccc(S(N)(=O)=O)cc2)C2CC(O)C2)cn1 (stereo unspecified),-0.47
CCCCCOC(=O)CSc1ncnc2c1sc1nc(N3CCOCC3)c3c(c12)CCCC3,-1.2
Cc1ccc(NC(=O)N2CCc3cc(S(=O)(=O)N4CCC(C)CC4)ccc32)cc1,-2.8
Cc1ccc2c(=O)cc(C(=O)Nc3c(C)cccc3C)oc2c1,-2.6
Cc1nc2cc(-c3ccc(Cl)cc3)nn2c(C)c1CCC(=O)N1CCN(c2ccccc2)CC1,1.1
Nc1nonc1C(=O)NCCNCc1ccccc1F,-2.9

# Only part of the results is shown; the hit share may differ from the screen's.
